Screens deposited in PubChem BioAssay by National Center for Advancing Translational Sciences (NCATS).
VACV mCherry inh = inhibitors of vaccinia virus infection (mCherry reporter signal); actives 0.63% (n = 310,000); Vaccinia virus mCherry reporter infection, fluorescence; about a quarter of the inactives have no number; AID 720579; Potency, µM (top dose mostly 36.5 µM), without a hit: at the top dose activity change, negative = inhibition, usual class: inhibitors; active = well fitted inhibition curve with a large enough effect; inconclusive = small, poorly fitted or top-dose-only effect; inactive = no such curve, though single readings can be large or run the other way; tested in A549 cells; further: nearly all actives have a fitted effect of over 35% in size; inactives centre near -10
VACV Venus inh = inhibitors of vaccinia virus (Venus reporter). Vaccinia virus Venus reporter expression, fluorescence. Potency, µM (highest dose often 36.5 µM), for inactives: at the top dose activity change, negative = inhibition, hits mostly inhibitors. actives 0.46% (n = 330,000). AID 720580; active means well fitted inhibition curve with a large enough effect; inconclusive means small, poorly fitted or top-dose-only effect; inactive means no such curve, though single readings can be large or run the other way; tested in A549 cells; further: nearly all actives have a fitted effect of over 30% in size; inactives centre near -10
* hit, by the source's call; i = inactive; u = inconclusive; x = no result given; & = joins results of further samples; [ ] = dose if it differs, or a comment. On the % scale 0 is the no-effect control and ±100 the full control effect; potency means the concentration at half of the fitted maximal effect.

SMILES	VACV mCherry inh	VACV Venus inh
CC(=O)/C=N/Nc1ccccc1	0%	-11%
O=C(CN1CCN(c2ncc(C(F)(F)F)cc2Cl)CC1)N1CCN(c2ncc(C(F)(F)F)cc2Cl)CC1	-24%	-12%
O=C(CNC(=O)c1ccco1)N/N=C/c1ccc(O)c([N+](=O)[O-])c1	-2%	-16%
CCCN1CCC(NC(=O)Nc2ccc([N+](=O)[O-])cc2)CC1	u	-9%
O=C(Nc1ccc(Cl)cc1F)C1CC1	-6%	-8%
C#CC1(N2CCCCC2)CCCCC1	i	-4%
N#Cc1cccc(C(=O)C(=O)N2CCC(Cc3ccccc3)CC2)c1	u	-15%
c1ccc(COc2ccccc2CNCc2cccnc2)cc1	i	-18%
CCN(CC)c1ccc(C(=S)NC2CCCCC2)cc1	-4%	-23%
CCOc1ccc(NC(=O)Cn2cc(C(=O)C3CC3)c3ccccc32)cc1	-9%&-14%	9%&-6%
COc1cc(NC(=O)CCS(=O)(=O)c2ccc3c(c2)oc(=O)n3C)cc(OC)c1OC	i	1%
CN(C)c1cccc(-c2nnc(SCC(=O)NCc3ccco3)n2C)c1	-6%	-25%
CC(C)(C)OC(=O)CNC(=O)c1[nH]cnc1C(=O)N[C@@H](CCCCNC(=O)OC(C)(C)C)C(=O)OC(C)(C)C	u	u
COc1cc(NC(=O)C2CCCN(S(=O)(=O)c3ccc4[nH]c(=O)ccc4c3)C2)cc(OC)c1 (stereo not given)	-13%	-11%
CC(=O)c1ccc(Oc2cc(C)nc(NCc3ccccc3)n2)cc1	-14%	-25%
CC(=O)Nc1ccc(C(=O)N2CCCCC2c2cc(C(=O)Nc3ccccc3)no2)cc1 (stereo not given)	-3%	-9%
CC(=O)Nc1nc(C)c(-c2csc(Nc3ccccn3)n2)s1	u	u
Cc1ccc(C(=O)COC(=O)CCC(=O)Nc2ccc(Oc3ccccc3)cc2)cc1C	-9%	-11%
CC1(C(=O)N2CC3(CC(c4cccc(NC(=O)COc5ccc(Cl)cc5)c4)=NO3)C[C@@H]2C(N)=O)CC1 (stereo not given in full)	-3%	-10%
O=c1c2cc(Cl)ccc2nc(-c2ccccc2Cl)n1O	-6%	-11%
COc1cc2oc(=O)cc(-c3ccc(-c4ccc(N(C)C)cc4)cc3)c2c(OC)c1OC	-9%	-18%
N=c1c2ccccc2nnn1-c1ccc(C(F)(F)F)cc1	-12%	-6%
COc1ccc2cc(C3=CCCCC3)ncc2c1	-22%	-12%
N/C(Cc1cccs1)=N\OC(=O)COc1ccc(Cl)cc1Cl	x	-27%
OCc1ccccc1CN1CCCCCC1	i	-5%
COc1cc(C)ccc1OCCCn1c(-c2ccc(Cl)cc2)nc2ccccc2c1=O	-3%	2%
CC(C)OC(=O)C[N+](C)(C)CCN1C(=O)C2C(c3ccccc3)C=CC(c3ccccc3)C2C1=O (stereo not given)	i	-2%
CC(C(=O)NC(C)(C)C)N(C(=O)CS(=O)CC(=O)Nc1ccc(F)cc1)c1ccccc1F (stereo not given)	-3%	-8%
COc1ccc(S(=O)(=O)Nc2c(C)nc3nc[nH]n3c2=O)cc1	1%&-7%	3%&-5%
CCc1ccc(C(=O)N2CCN(c3ccc(NC(=O)c4ccco4)cc3)CC2)cc1	-3%	-12%
CCn1c2ccccc2c2cc(NC(=O)C(C)Oc3ccccc3)ccc21 (stereo not given)	-19%	-13%
CCCC(C(=O)NCCc1ccc(S(N)(=O)=O)cc1)c1ccccc1 (stereo not given)	-10%	10%
Cc1ncc(CN2CCC(C(=O)Nc3ccc(-n4cccn4)cc3)CC2)s1	i	-12%
COc1ccc(OCc2cc(C(=O)N3CCOCC3)no2)c(Cl)c1	0%	-7%
Cc1c(N=Cc2nc3ccccc3[nH]2)c(=O)n(-c2ccccc2)n1C	x	-7%
C=CCn1c(C)csc1=Nc1ccc(C(C)=O)cc1	-11%	-10%
Cc1c(C(=O)N2CCCCCC2)c(S(=O)(=O)Nc2cccc(C#N)c2)c(C)n1C	-2%	-15%
N#Cc1cc2c(nc1SCC(O)CS(=O)(=O)Cc1ccc(Cl)cc1)CCCC2 (stereo not given)	-11%	-24%
CC(C)NC(=O)c1onc(CSc2ccc(C(C)C)cc2)c1C(=O)O	-9%	3%
Cc1cccc(Cn2c(C)c(CNC3CCCCCC3)c(C(=O)O)c2C)c1	-7%	-1%

Sorted by molar mass (descending): three of the compounds above
SMILES	VACV mCherry inh	VACV Venus inh
CC(C(=O)NC(C)(C)C)N(C(=O)CS(=O)CC(=O)Nc1ccc(F)cc1)c1ccccc1F (stereo not given)	-3%	-8%
Cc1ncc(CN2CCC(C(=O)Nc3ccc(-n4cccn4)cc3)CC2)s1	i	-12%
COc1ccc(S(=O)(=O)Nc2c(C)nc3nc[nH]n3c2=O)cc1	1%&-7%	3%&-5%

Profiles, quoted from the list. Order of values: VACV mCherry inh, VACV Venus inh
Results for COc1cc(C)ccc1OCCCn1c(-c2ccc(Cl)cc2)nc2ccccc2c1=O → -3%, 2%
Results for COc1ccc(OCc2cc(C(=O)N3CCOCC3)no2)c(Cl)c1 → 0%, -7%
Results for Cc1ncc(CN2CCC(C(=O)Nc3ccc(-n4cccn4)cc3)CC2)s1 → i, -12%

Continuation.
SMILES	VACV mCherry inh	VACV Venus inh
Cc1nc(CN2CCN(C(=O)CCc3nnc(Cc4c[nH]c5ccccc45)o3)CC2)cs1	-2%	-14%
CCOc1cc(NC(=S)NCCOC)c(OCC)cc1NC(=O)c1cccs1	-1%	-15%
CCOC(=O)CNc1c(N2CCN(c3ccccn3)CC2)c(=O)c1=O	-11%	-11%
COc1ccccc1-n1nc(C(=O)O)c2ccccc2c1=O	i	-14%
O=C(O)Cc1ccc2oc(-c3cccnc3)nc2c1	i	-2%
Cc1csc(NC(=O)C2CCCCC2)n1	-10%	-9%
Cc1sc2nc(SCC(=O)O)[nH]c(=O)c2c1C	i	-6%
CN1CCN(S(=O)(=O)c2ccc(Cl)nc2)CC1	-8%	-25%
Cc1nc2c(C#N)c[nH]n2c(=O)c1Cc1ccccc1	-9%	0%
CCCC[C@@H]1CNC(=O)C(=O)N1CCc1cc(C(F)(F)F)cc(C(F)(F)F)c1	u	-19%
CCOC(=O)/C=C/[C@H]1Cc2ccccc2CO1	-3%	-22%
Cc1ccc(S(=O)Cc2ccc(C(=O)NCc3ccc(OC(C)C)cc3)o2)cc1 (stereo not given)	-12%	-9%
CC(Oc1ccc(Br)cc1)C(=O)NCCCN1CCCC1=O (stereo not given)	i	-3%
COc1ccc(C(O)c2nc(-c3cnn(C)c3)cs2)cc1 (stereo not given)	29%	-6%
COc1ccc(F)cc1S(=O)(=O)NC(Cc1ccccc1)C(N)=O (stereo not given)	-19%	-12%
CN(C)S(=O)(=O)c1ccc(NC(=O)c2ccncc2)cc1	-11%	-2%
O=C(Nc1ccc(F)cc1)Nc1ccc2c(c1)OCO2	-4%	-13%
O=C(Nc1cccc(-c2nnc(-c3ccccc3)o2)c1)C1CCCCC1	-4%	-13%
Cc1ccc(S(=O)(=O)Nc2ccc(C(=O)N3CCOCC3)cc2)cc1	-8%	-7%
CC1CCN(C(=O)CSc2nc3c(c(=O)n2C)SCC3)CC1	-4%	-9%
COc1c(C)cc(Br)cc1C(=O)NC(=S)NCc1ccco1	i	-20%
Cc1nn(-c2ccccc2)c2ncc(C(=O)c3cc(Cl)ccc3O)cc12	-14%	-20%
Cc1cccc(CNc2ccnc(-c3cccc(NS(C)(=O)=O)c3)n2)c1	-14%	-14%
Cc1c(C(=O)Nc2cccc([N+](=O)[O-])c2)csc1-c1ccccc1	i	-10%
COc1ccc(CNc2c(C(=O)O)cnc3c2cnn3C)cc1	i	-17%
CCc1ccc(N=C2NC(=O)/C(=C/c3cc(Br)c(OCC(=O)O)c(OC)c3)S2)cc1	i	-4%
Cc1ccc(C(=O)Nc2c(-c3ccccc3)[nH][nH]c2=O)cc1	-17%	-6%
O=C(CCn1c(=O)c2cccn2c2cccnc21)NCc1ccc(F)cc1	-15%	-10%
CCc1ccccc1S(=O)(=O)Cc1ccc(C(=O)NCCc2ccc(C)cc2)o1	-27%	-15%
CCOc1ccc(NC(=O)COC(=O)C2C3CC4OC(=O)C2C4C3)cc1 (stereo not given)	-5%	2%
Cc1c(NC(=O)COC(=O)c2ccc(Br)o2)c(=O)n(-c2ccccc2)n1C	-13%	-14%
CN(c1ccccc1)S(=O)(=O)CS(=O)(=O)N(C)c1ccccc1	i	5%
CNC[C@H]1Oc2ccc(NC(=O)Nc3ccc4c(c3)OCO4)cc2C(=O)N([C@H](C)CO)C[C@@H]1C	-8%	-17%
O=C(NNC1=C(C(=O)C(F)(F)F)CCC1)c1cccc(O)c1	x	-14%
CCOC(=O)c1c(C)n(C)c2cc(Br)c(C(=O)OC)cc12	x	u
O=c1[nH]c(CN2CCc3ccccc3C2)nc2ccccc12	i	-4%
CC(Oc1ccc(Cl)cc1Cl)C(=O)NCCCN(C)C (stereo not given)	-14%	-3%
c1cc(-c2cc3c(o2)CCCC3OCCN2CCOCC2)cs1 (stereo not given)	3%	12%
Cc1sc(NC(=O)c2cc(-c3ccccc3)nc3ccccc23)c(C(N)=O)c1C	-18%	-17%
Cc1ccc(S(=O)(=O)N(CCC(=O)O)c2ccccc2)cc1	-13%	0%

Three compounds picked at random from the list so far, as already listed:
SMILES	VACV mCherry inh	VACV Venus inh
c1cc(-c2cc3c(o2)CCCC3OCCN2CCOCC2)cs1 (stereo not given)	3%	12%
Cc1c(C(=O)Nc2cccc([N+](=O)[O-])c2)csc1-c1ccccc1	i	-10%
CCc1ccccc1S(=O)(=O)Cc1ccc(C(=O)NCCc2ccc(C)cc2)o1	-27%	-15%

(cont.)
SMILES	VACV mCherry inh	VACV Venus inh
CC(C)(C)OC(=O)C[C@@H]1C/C=C\C[C@@H](CC(=O)NCCO)C(=O)NC[C@H](c2ccccc2)OC1=O	-11%	-8%
COC1=C(C)C(=O)C2=C(C1=O)C1C3CC4=C(C(=O)C(OC)=C(C)C4=O)C(CNC(=O)C(C)=O)N3C(C#N)C(C2)N1C (stereo not given)	u	1µM*
COc1ccccc1C#CC1=CC(=O)CC(C)(C)C1	u	-21%
CC1CCCN(c2ccc([N+](=O)[O-])s2)C1 (stereo not given)	i	-5%
Fc1ccc(C2c3[nH]c4ccccc4c3CCN2CCCn2cccn2)cc1 (stereo not given)	u	-17%
COc1cc(C(=O)Nc2ccccc2N2CCN(S(C)(=O)=O)CC2)cc(OC)c1OC	x	-18%
CC1(C)NC(C(=O)O)Cc2c1[nH]c1ccccc21 (stereo not given)	1%	2%
Cc1cccc(-c2c3c(=O)n(C)c(=O)n(C)c3cn2C(C)(C)C)c1	-2%	-9%
CCCCN(C(=O)c1cnc2n(c1=O)CCS2)c1ccccc1	-4%	3%
COc1ccc(S(=O)(=O)Nc2ccc3c(c2)N(C(C)=O)CCC3)cc1F	u	u
CC(C)COc1ccc(C/C(N)=N/n2cnnc2)cc1	i	-12%
CCOC(=O)CNC(=O)C1CCN(S(=O)(=O)c2ccc(-c3nn[nH]n3)cc2)CC1	-1%	-5%
CC(=O)Nc1c(C)nn(C(C)=O)c1C	-11%	-13%
O=C(CCCCC(=O)N1CCOCCOCCOCC1)OCc1ccccc1	i[7.34 µM]	-5%[7.34 µM]
Cc1ccc(CNC(=O)COc2cccc3c2OC(C)(C)C3)cc1	-18%	-13%
O=C(NC1c2ccccc2-c2ccccc21)N1CCOCC1	11µM*	10µM*
CCOc1ccc(C(=O)Nc2ccccc2N2CCN(C(=O)c3ccccc3)CC2)cc1[N+](=O)[O-]	i	-18%
Cc1c(N)cc(S(=O)(=O)O)cc1NC(=O)c1cccc([N+](=O)[O-])c1	i	0%
COc1cc(CN(C2CC2)S(=O)(=O)c2ccccc2Br)cc(OC)c1	-8%	-25%
Cc1onc(-c2c(F)cccc2Cl)c1C(=O)OCN1C(=O)c2ccccc2C1=O	x	-16%
COCCCNC(=O)Cn1cc(C(=O)c2cccs2)c2ccccc21	i	-10%
Cc1csc(NC(=O)c2ccncc2)n1	-3%	9%
CCc1nnc(NC(=O)Nc2ccc(OC)cc2)s1	x	-22%
O=C(NC1CCCC1)C(c1ccc(N2CCOCC2)cc1)N(C(=O)c1ccco1)c1ccccc1F (stereo not given)	-17%	-15%
O=C(NNC(=O)C1CCCC1)c1ccc(F)cc1	-9%	-19%
COCC(=O)OC1CCn2c1nc1c2C(=O)C(C)=C(NC(C)=O)C1=O (stereo not given)	u	u
O=c1cc(O)nc2n1CCCS2	-3%	5%
Cc1ccc(NC(=S)N2CCC(C(=O)c3ccc(F)cc3)CC2)cc1C	u	1%
NNC(=S)NCc1cccnc1	-11%	-9%
NC(=O)c1cccc2c1C(=O)N(C1CCCCC1)C2	i	-2%
CC(C)NC(=O)c1ccc2sc([C@H]3C[C@H](O)[C@@H](CO)O3)nc2c1	13%	4%
CCCOc1ccc(CNC(=O)c2cc3ccccn3n2)cc1	-5%	-3%
COc1ccc(C(=O)NCc2nnc(SCC(=O)N3CCCCC3)o2)cc1	i	-18%
CNC(=O)CCc1[nH]c2ccccc2c1Sc1ccccc1	-2%	-17%
CCCNS(=O)(=O)/C=C/c1ccccc1	-9%	-13%
CCOC(=O)C1=C[C@@H](C(C)(C)C)N(S(=O)(=O)c2ccc(C)cc2)[C@H]1c1ccc(C)cc1	2%	-5%
CC1CCC/C=C/C2CC(O)CC2C(O)/C=C/C(=O)O1 (stereo not given)	u	u
O=C1c2ccc(-c3ccc(F)cc3OCc3ccccc3)cc2S(=O)(=O)c2cccc(C(=O)N3CCN(c4ncc(Cl)cc4Cl)CC3)c21	i	-19%
